TRPML1 blocker = human mucolipin-1 channel inhibition | Q9GZU1 | TRPML1-inducible cells, Ca2+ dye fluorescence, FDSS; active compounds read low; inhibition of EC80 agonist-evoked calcium signal | 390,000 tested, 0.02% active | activity change, negative = inhibition, % (test concentration not listed); in the data active means activity change below about -50%; inconclusive means about -30% to -50%; inactive means above about -30%;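 also: stimulus is agonist 54-4 at its EC80 concentration; % is scaled to controls: 0 for no effect and ±100 for the full control effect; compound concentration not given in the record; the text of the record puts the active cut at -80%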
Target sequence (Q9GZU1 whole entry, looked up): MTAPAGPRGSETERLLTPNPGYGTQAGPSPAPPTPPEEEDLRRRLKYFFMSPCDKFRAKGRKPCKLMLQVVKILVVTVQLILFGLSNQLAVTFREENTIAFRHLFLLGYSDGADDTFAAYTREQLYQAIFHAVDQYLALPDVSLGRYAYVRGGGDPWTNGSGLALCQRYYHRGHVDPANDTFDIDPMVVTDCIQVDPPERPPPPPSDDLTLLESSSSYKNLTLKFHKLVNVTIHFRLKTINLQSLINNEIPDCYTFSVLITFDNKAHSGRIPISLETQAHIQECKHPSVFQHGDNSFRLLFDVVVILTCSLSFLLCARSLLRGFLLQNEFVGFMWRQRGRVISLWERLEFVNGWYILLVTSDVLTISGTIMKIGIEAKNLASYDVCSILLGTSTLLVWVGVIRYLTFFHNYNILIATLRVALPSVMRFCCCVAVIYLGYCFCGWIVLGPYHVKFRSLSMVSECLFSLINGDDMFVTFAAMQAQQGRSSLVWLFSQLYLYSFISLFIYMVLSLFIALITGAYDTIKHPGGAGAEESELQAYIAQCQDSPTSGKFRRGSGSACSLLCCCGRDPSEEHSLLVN
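TRPML1-DL cells, Tet-induced overnight (~16 h, 37 °C) at 1,500 cells/well, were loaded with Ca8 no-wash dye plus quencher for 45-90 min at room temperature. Compounds were pinned during FDSS kinetic reading; agonist 54-4 at EC80 (4 uM final) then added.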
gsp agonist = activates gsp, the McCune-Albright syndrome mutation; gsp mutant cells, cAMP HTRF, 30 min; control for the full effect not named in the record; Potency, µM (titrated, usually from 76.9 µM), without a hit: at the highest dose activation (cAMP increase), hits mostly activators; 340,000 tested, 0.13% active; active = well fitted activation curve with a large enough effect; inconclusive = small, poorly fitted or top-dose-only effect, or another doubt; inactive = no such curve, though single readings can be large or run the other way; cell line not stated here;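 also: phosphodiesterase inhibitor Ro 20-1724 added with compounds to block cAMP breakdown; potency is read from the fitted curve at half-maximal effect; nearly all actives have a fitted effect of over 60% in size; about a fifth of the inactives were tested at one dose only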
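Cells stably selected in G418 were plated at 2000/well, grown 16-24 hr, then given compounds in DMSO with the PDE inhibitor […] (300 uM solution added) for 30 min at 37C; cAMP was read by HTRF.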
Sfp inh = Sfp phosphopantetheinyl transferase inhibition. Biochemical Sfp PPTase activity, qHTS. Potency, µM, for the others: max response, negative = inhibition, most hits filed as inhibitors. 310,000 tested, 3.5% active; active = well fitted inhibition curve with a large enough effect; inconclusive = small, poorly fitted or top-dose-only effect, or another doubt; inactive = no such curve, though single readings can be large or run the other way;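 also: the enzyme is Sfp with the accession as filed and its product quenches rhodamine fluorescence; potency is read from the fitted curve at half-maximal effect; 0% = enzyme reaction without inhibitor and -100% = no enzyme wells; top concentration of the series not given in the record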
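Compounds were incubated with enzyme (final 15 nM) for 15 min at room temperature before substrate addition started the reaction. Fluorescence at 525 nm excitation, 598 nm emission was recorded immediately and after 30 minutes.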
gsp antagonist = gsp mutant antagonism; Potency, µM (titrated, usually from 76.9 µM), without a hit: top-dose activity change, negative = inhibition, actives largely listed as inhibitors; 340,000 tested, 0.4% active; gsp-mutant cells, cAMP HTRF, 30 min; control for the full effect not named in the record; active = falling curve of any shape with a large fitted effect; inconclusive = falling curve, mostly with a smaller effect; inactive = flat or rising curve; cell line not stated here;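 also: intracellular cAMP measured with PDE inhibitor Ro 20-1724 present during compound exposure; potency is read from the fitted curve at half-maximal effect; % is scaled to controls: 0 for no effect and ±100 for the full control effect; nearly all actives have a fitted effect of over 65% in size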
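G418-selected cells were plated in DMEM/10% FBS for 16-24 h at 37C, then treated with compounds plus the PDE inhibitor […] (300 uM solution added) for 30 min at 37C. Intracellular cAMP was measured by HTRF after 30 min lysis at room temperature.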
ClpP mod = qHTS Assay for Activators of ClpP; AID 651965, 2013; Potency, µM (titrated, usually from 57.5 µM), for the others: top-dose activity change, negative = active; ATP-dependent Clp protease proteolytic subunit (Bacillus subtilis (strain 168)), P80244; 340,000 tested, 1.9% active; purified B. subtilis ClpP, FRET peptide cleavage, 20 min; active = well fitted falling curve with a large enough effect; inconclusive = small, poorly fitted or top-dose-only effect; inactive = no such curve, though single readings can be large or run the other way; also: potency is read from the fitted curve at half-maximal effect; the source files actives as falling curves though it sought activators and does not explain the sign; nearly all actives have a fitted effect of over 65% in size; many hits overshoot -100%
Target sequence (P80244 whole entry, looked up): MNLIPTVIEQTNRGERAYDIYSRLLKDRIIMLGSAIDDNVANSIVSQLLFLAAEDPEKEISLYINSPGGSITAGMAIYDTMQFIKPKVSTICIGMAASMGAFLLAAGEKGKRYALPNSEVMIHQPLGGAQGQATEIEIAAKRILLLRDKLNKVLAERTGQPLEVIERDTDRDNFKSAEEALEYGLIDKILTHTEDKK
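ClpP 10 microg/mL final, pH 8 Tris/KCl buffer with BSA, glycerol, Tween-20; compound pinned in; FRET-FV substrate; RT 20 min; Ex320/Em430; ΔFRET vs ADEP 5.8 microM, DMSO, no enzyme.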
Menin-MLL FL inh = inhibitors of human menin-MLL interaction, wild-type MLL peptide; Fluorescence polarization, fluorescein-MLL peptide displacement from menin; FP activity change, % at 61.4 µM; 290,000 tested, under 10 active; AID 1766; inconclusive = falling polarisation curve, or a change in total fluorescence; inactive = total fluorescence flat and polarisation flat or rising; no compound was filed as active; the % refers to the polarisation; negative = inhibition;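 also: % of control where 0% means no effect; inhibitors lower the polarisation; unlabelled MLL peptide was the positive control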
TRPV1 potentiator = enhances activation of the human vanilloid receptor TRPV1; Q8NER1; TRPV1-expressing cells, Fluo-8 calcium influx, capsaicin EC20 potentiation; host cell line not named in the record; control for the full effect not named in the record; potentiation, % at 8.33 µM; 320,000 tested, 0.02% active; AID 540277; active means potentiation above 80%; inconclusive means 30% to 80%; inactive means below 30%; also: 0% is about no effect
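Fluo-8 calcium influx in TRPV1-expressing cells, kinetic read (ex 480/em 520 nm). Compound added and read 3 min for agonist activity, followed by capsaicin at EC20 final and 2 min further read for enhancement.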
Active calls of the source: *; ? = inconclusive; . = no result given; [ ] = dose if it differs, or a comment.

SMILES | TRPML1 blocker | gsp agonist | Sfp inh | gsp antagonist | ClpP mod | Menin-MLL FL inh | TRPV1 potentiator
CCC(C)C1/C=C\CC(NC(=O)OCC2c3ccccc3-c3ccccc32)CC(=O)N1Cc1ccccc1 (stereo not drawn) | 46 | . | . | 0% | -3.2% | . | .
Cc1cccc(N2CCN(C(=O)c3cn4ccccc4n3)CC2C)c1 (stereo not drawn) | 13 | 16% | 10% | -4% | . | -0.9 | -16
CC1=CS/C(=C(/C#N)C(=O)NCc2ccco2)N1c1ccccc1 | 11 | 24% | 2% | -12% | 2.0% | -1.8 | -9
COc1cc(-c2nc(-c3ccc(NC(=O)c4ccc5c(c4)OCO5)cc3)no2)cc(OC)c1OC | 1 | 23% | -3% | 10% | 20µM* | 5.2 | -7
O=C(c1ccco1)N1CCN(Cc2ccc(F)cc2Cl)CC1 | -5 | 11%[15.4 µM] | 6% | -4% | 0.8% | 0.3 | -2
Cc1cccc[n+]1C1C(c2ccccc2)C(C#N)=C(C(=C=[N-])C#N)NC1(O)C1CC1 (stereo not drawn) | -9 | ? | 2% | 18% | -3.4% | ? | .
COc1ccc(OC)c(C(=O)NC(CC(N)=O)c2ccc(NCCN3CCCC3)c([N+](=O)[O-])c2)c1 (stereo not drawn) | -17 | -33%[inhibitor] | 13% | 6% | -24% | -2.3 | -4
COc1ccc(CNC(=O)CCC(=O)Nc2ccc(Cl)cc2)cc1 | -10 | -5% | -7% | 2% | -0.4% | 0.0 | -11
NNC(=O)COc1cccc2cccnc12 | 6 | -7% | 2% | 15% | -4.7% | 1.9 | -7
CCCCC1=NN(C(=O)c2ccco2)C(O)(C(F)(F)F)C1 (stereo not drawn) | -4 | 17% | 10% | 3% | . | 3.6 | 9
CCN1CCN(S(=O)(=O)CC2(C)C3CCC2(C)C(=O)C3Br)CC1 (stereo not drawn) | 9 | 12%[15.4 µM] | 10% | -1% | . | -2.2 | 28
Cc1cccc(NC(=O)CSc2nnc(-c3ccncc3)n2C)c1 | 6 | -66%[inhibitor] | 12% | 9% | 5.4% | 1.0 | 12
CCOC(=O)c1cnc(N)nc1C(F)(F)F | -4 | -7%[15.4 µM] | 15% | 19% | 1.0% | -5.2 | 2
CCN(CC)CCNC(=O)C(=O)Nc1cc2c3c(c1)CCN3C(=O)CC2 | 17 | 19% | 8% | -1% | -1.7% | . | 6
CCCOc1ccc(N2C(=O)CC(N(CCc3ccc(S(N)(=O)=O)cc3)C(C)=O)C2=O)cc1 (stereo not drawn) | -7 | -10% | 3% | 4% | -0.7% | 3.1 | 4
Cc1noc(C)c1COc1cccc(C(=O)Nc2ccc(OCc3ccccc3)cc2)c1 | 0 | -31%[inhibitor] | 0% | -19% | -4.6% | 1.1 | -28
COc1ccc(CSc2nnc(CNS(C)(=O)=O)o2)cc1 | -4 | -5% | 16% | 8% | -0.1% | 7.8 | 3
N#Cc1c(NC(=O)c2ccc(Br)o2)n(-c2ccccc2)c2nc3ccccc3nc12 | 4 | 10% | -7% | -8% | 3.2% | ? | 7
O=C(Cc1cccs1)Nc1ccc(-c2nnc(-c3ccco3)o2)cc1 | 4 | 13% | 18% | -2% | 3.8% | -1.7 | 1
O=C(COC(=O)c1ccco1)Nc1ccc(N2CCOCC2)cc1 | -6 | -7%[15.4 µM] | . | 0% | . | . | 11
Cn1cccc1C(=O)OCC(=O)NCc1ccc2c(c1)OCO2 | -9 | 22% | . | -3% | -0.3% | . | -4
COc1ccc(C)cc1NS(=O)(=O)c1ccc2c(c1)N(C(C)=O)CCO2 | 15 | -3% | 8% | 7% | -1.7% | 0.5 | 10
CCc1ccc(NC(=O)C2CCN(S(=O)(=O)c3ccc4c(c3)CC(C)N4C(C)=O)CC2)cc1 (stereo not drawn) | 23 | 0% | 10% | ? | 0.7% | 3.1 | 24
CCN(CC)C(=O)C1=C(C)N(Cc2ccccc2)C(=O)C(CC(=O)NC2CC2)C1 (stereo not drawn) | 13 | 12% | . | . | -0.2% | . | .
O=C(/C=C/c1ccc2c(c1)OCO2)NCCSCc1ccc(Cl)cc1Cl | 15 | 4%[15.4 µM] | 7% | -16% | -1.3% | 1.0 | -1
Cc1cc(NC(=O)CC23CC4CC(C2)CC(CC(=O)Nc2cc(C)on2)(C4)C3)no1 | 36 | 6% | -6% | 5% | -0.5% | 0.9 | 1
Cc1nn(Cc2c(F)c(F)c(F)c(F)c2F)c(C)c1NC(=O)c1nn(C)cc1[N+](=O)[O-] | -1 | 10% | 8% | -6% | 1.7% | -0.5 | -8
Cc1ccc(NC(=O)COC(=O)c2ccc(-n3cnnn3)cc2)c(Br)c1 | -3 | -27% | . | 12% | 0.4% | . | -3
COc1ccccc1NC(=O)CCSc1nnnn1C | ? | -6%[15.4 µM] | 27% | 4% | -1.8% | 1.0 | -2
CCN(CC(=O)Nc1ccc(OC)cc1)C(=O)c1ccc(NS(=O)(=O)c2ccc(C(C)=O)cc2)cc1 | -17 | -26%[15.4 µM] | . | 5% | . | . | 2
CCOC(=O)c1ccc(S(=O)(=O)N2CCN(CC(O)COc3ccc(C#N)cc3)CC2)cc1 (stereo not drawn) | -12 | 18% | -20% | -16% | . | -5.5 | -11
COc1ccc(CCNC(=O)C(=O)NCc2ccccc2)cc1OC | -6 | -24% | 20% | 6% | 1.1% | 5.0 | 4
Cc1ccc(NCCNc2ccc(C)cc2)cc1 | 17 | -15% | 12% | 10% | 0.4% | 3.1 | 3
N#Cc1ccccc1OCC(=O)NC1CCCCCC1 | 3 | ? | . | . | 1.1% | . | .
CC1(C)Cc2c(cnn2-c2ccccc2)C(NC(=O)CCCN2CCCC2=O)C1 (stereo not drawn) | 20 | 9%[15.4 µM] | 18% | 10% | 0.9% | 1.7 | -27
CCCn1c(C2CCCN2c2nc(-c3ccc(C)cc3)cs2)nc2ccccc21 (stereo not drawn) | -1 | 37% | 50µM* | -10% | -5.2% | 6.6 | -7
CC(=O)NC1CC2CCCC(C1)N2CC(=O)Nc1ccccc1 (stereo not drawn) | -6 | 25% | -7% | 8% | -2.9% | 0.6 | 0
CCCC(=O)c1cc(F)c(N2CCN(C(=O)OCC)CC2)cc1C | 38 | 4% | 4% | -13% | -3.6% | 4.5 | -14
N#Cc1ccc(N2CCCC2C(=O)O)c([N+](=O)[O-])c1 (stereo not drawn) | 8 | -9% | ? | 9% | 1.3% | -0.3 | -3
O=C(NC1CCCCC1)C1CCCN(S(=O)(=O)c2cccc3cccnc23)C1 (stereo not drawn) | -11 | ? | 12% | 3% | -0.7% | 0.3 | 2
CCOc1ccc(S(=O)(=O)N(CC(=O)O)c2ccccc2)cc1 | -8 | -17% | 17% | -6% | 1.4% | -1.3 | -14
Cc1cc(N2CCN(c3ccc(F)cc3)CC2)nc2cc(O)ccc12 | 11 | 8% | -1% | -1% | -22% | 3.1 | -4
O=C(NCCCNC(=O)NC1CCCCC1)NC1CCCCC1 | -2 | -37%[inhibitor] | . | 7% | 0.9% | . | .
CCOC(=O)C(C(=O)OCC)C(C)(C)/C(C)=N\Nc1ccc([N+](=O)[O-])cc1[N+](=O)[O-] | 29 | -19%[15.4 µM] | -16% | ? | 1.1% | -2.5 | -2
COc1ccccc1CNc1nc(C)c(C(C)=O)s1 | -7 | ? | ? | 8% | . | 2.2 | -4
CC(C)(C)OC(=O)C[C@H]1C/C=C\C[C@@H](CC(=O)NCCO)C(=O)N[C@H](Cc2ccccc2)COC1=O | 2 | . | . | 11% | 0.0% | . | .
COc1cccc(OCC(=O)Nc2ccccc2C(N)=O)c1 | -25 | -1% | 11% | -2% | -5.7% | -0.8 | -2
COc1ccc(NC(=O)c2c(F)c(F)c(F)c(F)c2F)cc1Cl | 17 | -9% | 10% | -6% | -1.3% | 5.8 | -18
COc1ccc(C(=O)Nc2ccc(N3CCN(Cc4ccccc4)CC3)cc2)cc1 | 13 | 10%[15.4 µM] | -2% | 10% | . | -2.4 | 2
O=C(/C=C/c1cccc(Cl)c1)Nc1ccncc1 | 16 | -20% | -3% | 1% | -0.5% | 4.2 | -11

Some of the entries above in another layout:
Results follow in this order: TRPML1 blocker | gsp agonist | Sfp inh | gsp antagonist | ClpP mod | Menin-MLL FL inh | TRPV1 potentiator
O=C(NCCCNC(=O)NC1CCCCC1)NC1CCCCC1
  -2 | -37%[inhibitor] | . | 7% | 0.9% | . | .
O=C(/C=C/c1cccc(Cl)c1)Nc1ccncc1
  16 | -20% | -3% | 1% | -0.5% | 4.2 | -11
COc1cccc(OCC(=O)Nc2ccccc2C(N)=O)c1
  -25 | -1% | 11% | -2% | -5.7% | -0.8 | -2

(more compounds)
SMILES | TRPML1 blocker | gsp agonist | Sfp inh | gsp antagonist | ClpP mod | Menin-MLL FL inh | TRPV1 potentiator
O=C(NCCN1CCN(Cc2ccccc2)CC1)C1CC(=O)N(C2CCCC2)C1 (stereo not drawn) | 6 | -45%[inhibitor] | 12% | 5% | -1.7% | 4.6 | -6
CCn1c(SCC(N)=O)nc2sc3c(c2c1=O)CCN(C)C3 | 9 | ? | -24% | 3% | . | ? | 0
O=C(O)c1cccc(N2C(=O)c3cc([N+](=O)[O-])cc4cc([N+](=O)[O-])cc(c34)C2=O)c1 | -19 | 8% | -28% | ? | -2.4% | 11 | 5
CN1OC[C@@H]2CN(C(=O)CCc3ccccc3)[C@H](c3cccc(N4CCOCC4)c3)C[C@@H]21 | -20 | . | . | 0% | -0.5% | . | .
O=C(NCc1cccnc1)c1cn(-c2ccccc2)nc1-c1cccs1 | 15 | -42%[inhibitor] | -11% | -2% | -28% | -0.7 | -3
COc1ccc(CCNC(=O)COc2cc(C)cc3oc(=O)cc(C)c23)cc1OC | -6 | 23% | 11% | ? | -14% | . | -10
c1ccc(Nc2cccc(Nc3ccccc3)n2)cc1 | -7 | -72%[inhibitor] | -4% | -12% | ? | -1.2 | 14
CC(C)(O)C(=O)N/N=C\c1ccc(OC/C=C/c2ccccc2)cc1 | 1 | -4% | -2% | -17% | 0.9% | 2.4 | 7
COc1cc(C(=O)NCCc2nc3ccccc3n2C)cc(OC)c1OC | -16 | 16% | -2% | 5% | -1.6% | 3.2 | 4
